Screening data deposited in PubChem BioAssay by several laboratories.
MT1-MMP act inh – blockers of MT1-MMP proenzyme processing, primary screen, HT1080 RFP-PRO-GFP cells, GFP/RFP fluorescence; Matrix metalloproteinase-14 (Homo sapiens), P50281; GFP/RFP ratio fluorescence, overnight; percent of plate control window, DMSO zero; AID 651647, 2012; GFP/RFP ratio change, % at 20 µM; 360,000 tested, 0.061% active;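 active means GFP/RFP ratio change of at least 30% with cell ATP level not reduced by more than half and red fluorescence within 50% of control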; further: strong numbers were not always called active
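Test system: HT1080 RFP-PRO-GFP cells; Benchmarks: DMSO and RFP-L50D-GFP cell wells; Timing: cells overnight before dosing, compound overnight, 37 °C, 5% CO2; Compound: one 20 µM compound dose with 1% DMSO; Read-out: GFP/RFP fluorescence ratio.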
PABP polyA inh – PABP poly(A) RNA binding inhibitors, primary screen, biochemical, fluorescence polarization, uHTS. 290,000 tested, 1% active. Polyadenylate-binding protein 1 (Homo sapiens), P11940. inhibition, % at 35 µM. AID 2014, 2009;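 active means 50% or more with normal probe brightness, or confirmed in later tests; inconclusive means above 50% with abnormal brightness, or retests that disagree; inactive means below 50% or failed in later tests; about a fifth of its hits are not listed in these tables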;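 further: calls also rest on retests at 20 µM and on dose response follow-up; controls were probe without protein and protein plus probe with vehicle; some compounds called inactive have numbers as strong as hits; many hits fall short of the cut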
Target sequence (P11940 whole entry, looked up): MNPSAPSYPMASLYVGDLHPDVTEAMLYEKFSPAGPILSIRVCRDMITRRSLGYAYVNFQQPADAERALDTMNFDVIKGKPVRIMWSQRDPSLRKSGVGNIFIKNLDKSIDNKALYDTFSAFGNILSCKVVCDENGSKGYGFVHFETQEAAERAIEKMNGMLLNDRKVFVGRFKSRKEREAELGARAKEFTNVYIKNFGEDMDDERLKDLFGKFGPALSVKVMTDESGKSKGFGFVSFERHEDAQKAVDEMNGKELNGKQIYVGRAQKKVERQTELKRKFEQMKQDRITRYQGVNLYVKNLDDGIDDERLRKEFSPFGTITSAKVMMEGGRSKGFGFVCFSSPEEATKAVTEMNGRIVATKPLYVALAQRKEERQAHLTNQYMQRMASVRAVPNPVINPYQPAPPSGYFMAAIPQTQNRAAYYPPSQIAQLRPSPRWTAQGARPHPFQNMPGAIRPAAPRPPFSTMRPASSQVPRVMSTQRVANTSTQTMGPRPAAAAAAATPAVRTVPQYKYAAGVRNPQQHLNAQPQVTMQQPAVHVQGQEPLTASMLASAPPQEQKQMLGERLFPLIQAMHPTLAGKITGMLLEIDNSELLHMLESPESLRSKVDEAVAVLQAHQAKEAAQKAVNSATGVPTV
Yeast UUG start – modulators of yeast start codon fidelity, primary screen, whole organism, S. cerevisiae, single point, plate reader; activity score, % at 18.7 µM; S. cerevisiae UUG-firefly luciferase reporter, luminescence/redox ratio; AID 602363, 2012; 350,000 tested, 0.13% active;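 active means replicate mean at a twofold rise or more, about +100% in these data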;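 further: firefly luciferase made from a UUG start codon reports start codon fidelity; reporter light over untreated wells divided by growth signal over untreated wells; some hits fall short of that in this replicate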
HIV Env fusion – inhibitors of HIV-1 Env-driven cell-cell fusion, primary screen, HeLa-JRFL effector, CEM21 target cells, luciferase; inhibition, % at 12.3 µM; 360,000 tested, 1.1% active;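 active means mean replicate inhibition score of at least 50 and every replicate individually at or above 50; inconclusive means only one of the two criteria met; inactive means mean below 50 and not all replicates reaching 50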;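 further: 0% = plate neutral controls and 100% = maraviroc near 300 nM; one replicate is shown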
Rce1 inhib – yeast Rce1p protease inhibitors, primary screen, biochemical, fluorescence, cell-free homogeneous; calls only; 290,000 tested, 0.27% active; CAAX prenyl protease 2 (Saccharomyces cerevisiae (strain ATCC 204508 / S288c)), Q03530; yeast membranes, quenched prenylated peptide cleavage fluorescence;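 active means fall in fluorescence gain of 50% or more versus controls, with final raw signal at or below 3038400; inconclusive means same 50% fall but final raw signal above 3038400; inactive means fall in fluorescence gain under 50%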;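 further: plate controls were neutral control wells for no effect and wells lacking membranes for full effect; tested at 10 µM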
CSC inhib – cancer stem cell viability inhibitors, primary screen, luminescence | cancer stem cell-like cells viability | 300,000 tested, 1.1% active | inhibition, % at 7.5 µM;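 active means mean at 75% or more and at least half the replicates too; inconclusive means mean and replicates disagree; tested in HMLE shEcad cells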;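 further: 0% = median of negative and 100% = median of positive control wells; the first replicate is given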
eIF4H FP inh – human eIF4H binding inhibitors, primary screen, translation initiation inhibitor project, biochemical, uHTS, fluorescence polarization; Eukaryotic translation initiation factor 4H (Homo sapiens), Q15056; eIF4H fluorescence polarization binding assay; inhibition, % at 35 µM; 290,000 tested, 0.94% active;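 active means 50% or more with normal probe brightness, or confirmed in later tests; inconclusive means above 50% with abnormal brightness, or retests that disagree; inactive means below 50% or failed in later tests; about a fifth of its hits are not listed in these tables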;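 further: calls also rest on retests at 20 µM and on dose response follow-up; 0% = protein and probe with vehicle and 100% = probe without protein; strong numbers were not always called active; many hits fall short of the cut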
MT1-MMP act inh RFP – further read-out of MT1-MMP act inh, marked with its call; RFP signal change, %; measured here: RFP expression control read;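 0 = vehicle wells; hits needed this value within 50% of zero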
An asterisk follows results filed as active; i = inactive; ? = inconclusive; . = no result given; & = joins results of further samples. These rows are one share of the data; count on the stated rates, not on these rows.

The line under a structure holds: MT1-MMP act inh | MT1-MMP act inh RFP | PABP polyA inh | Yeast UUG start | HIV Env fusion | Rce1 inhib | CSC inhib | eIF4H FP inh
- COc1cc(OC)cc(N(C(=O)c2ccco2)C(C(=O)NC2CCCC2)c2ccc(N3CCOCC3)cc2)c1 (centres undefined)
→ -2 | 3 | -5 | 17 | 0 | i | 17 | -11
- COC(=O)c1ccc(CSc2nc3c(cnn3-c3ccc(C)cc3)c(=O)[nH]2)o1
→ 1 | -3 | -3 | -4 | 21 | i | . | -1
- CCN(Cc1ccc(C#CCCO)cc1)CC1CCCN(CCc2cccc(OC)c2)C1 (centres undefined)
→ 3 | 3 | 14 | 7 | 31 | i | -2 | 8
- COc1ccc(/C=C/C(=O)c2ccoc2)cc1
→ -3 | -1 | 0 | 2 | . | i | 13 | -1
- Cn1c(=O)n(C)c2cc(S(=O)(=O)Nc3ccccc3C(=O)O)ccc21
→ -3 | -2 | -1 | -19 | -19 | i | -3 | -11
- CCOC(=O)N1CCN(S(=O)(=O)c2ccc3[nH]c(=O)sc3c2)CC1
→ 0 | -4 | -4 | -8 | . | i | -10 | -10
- CCS(=O)(=O)N1CCC(C(=O)NCc2ccco2)CC1
→ -1 | -2 | 4 | -11 | . | i | . | -5
- O=C(CNC(=O)c1cccc(Br)c1)N/N=C/c1cccnc1
→ 6 | 5 | -2 | -12 | 9 | i | -11 | -4
- CCN(CC)C(=O)C1=C(C)NC(=O)NC1c1c(F)cccc1Cl (centres undefined)
→ -7 | -1 | -1 | -2 | -30 | i | -4 | -11
- COc1ccc(CCNC(=O)c2cc(S(=O)(=O)N3CCCCC3)c[nH]2)cc1OC
→ 4 | 0 | 2 | -10 | . | i | -1 | -5
- CCc1c(O)cc2n(c1=O)-c1ccccc1C2(C)C
→ 0 | 3 | -6 | -10 | -47 | i | 15 | 4
- C#CC[N+]1(CC#Cc2ccc(C)cc2)CCCCC1
→ 1 | 1 | -4 | . | 4 | i | -9 | 19
- O=C(c1cc(C2CC2)nn1-c1ccccc1)N1CCN(S(=O)(=O)c2ccc(F)cc2)CC1
→ -6 | -2 | . | -12 | -2 | . | . | .
- CCN1CCN(C(=O)c2cc(COc3ccc(F)cc3F)on2)[C@@H](C)C1=O
→ -3 | -23 | -1 | -3 | -3 | i | -7 | -8
- CC12C(=O)N(c3ccccn3)C(=O)C1C1C=CC2C1 (centres undefined)
→ -2 | 1 | 2 | -13 | 10 | i | -1 | -2
- CC(C)(C)n1nc2c(c1NC(=O)CCCc1ccccc1)CS(=O)C2 (centres undefined)
→ -1 | -2 | -2 | -16 | -2 | i | -8 | 4
- Cc1ccc2cccc(NC(=S)NC(=O)c3ccnn3C)c2n1
→ -5 | 1 | -6 | . | -131 | . | -1 | 11
- Cc1ccc(N2C(=O)c3ccc(C(=O)N4CCN(Cc5ccccc5)CC4)cc3C2=O)cc1
→ -1 | -4 | 3 | -4 | 4 | i | -4 | -5
- CCN(CC(=O)NCc1cccs1)C(=O)CN(C)S(=O)(=O)c1ccc(C)cc1
→ 6 | 0 | . | . | . | i | -3 | .
- COc1ccc(CNC(=O)CCCn2nc(C)n3ccnc3c2=O)cc1
→ -4 | 3 | 10 | -1 | 3 | i | -8 | 5
- Oc1ccc(Cl)cc1CNCc1ccc(Cl)nc1
→ 4 | 6 | . | -10 | 8 | . | 9 | .
- O[C@@H]1CN(Cc2ccc(-n3cccn3)cc2)CC[C@H]1N1CCN(c2ccccc2F)CC1
→ -3 | -19 | -2 | -9 | 5 | i | -17 | 2
- Cc1cc(C)nc(NC(=O)c2ccc(C)c([N+](=O)[O-])c2)n1
→ 2 | 5 | -4 | . | . | i | -4 | 0
- O=C1NC(=O)/C(=C\c2ccc(OCc3cccc(C(=O)O)c3)c(Cl)c2)N1
→ 1 | 2 | 3 | -10 | 34 | i | -10 | 16
- COc1ccccc1Nc1nnc(SCc2nnc(-c3cc(OC)c(OC)c(OC)c3)o2)s1
→ 6 | 1 | -4 | . | 6 | i | 43 | -9
- CCOC(=O)Cn1cnc(C)c1
→ 2 | 3 | . | -19 | 4 | . | . | .
- CCc1cccc2c1Sc1ccccc1CC2N1CCNCC1 (centres undefined)
→ -14 | -5 | . | . | 24 | i | 79* | .
- CCOc1ccc2[nH]c3nc(SCC(=O)NC4CC4)nnc3c2c1
→ 10 | 0 | 6 | -9 | 4 | i | 4 | -7
- COc1ccc(CCNC(=O)c2ccccc2-c2ccccc2C(=O)O)cc1OC
→ 0 | 0 | -2 | -7 | -1 | i | -15 | -8
- CC(=O)OC[C@@H]1CN(Cc2ccccc2)C[C@H](n2cnc3c(NC4CCC4)ncnc32)O1
→ -2 | 2 | . | 0 | 21 | . | . | .
- CCOC(=O)C1CCN(c2c(NCc3ccc(C(=O)NCCC(C)C)cc3)c(=O)c2=O)CC1
→ -2 | 0 | -1 | 7 | . | i | -8 | -2
- Cc1ccc(C(=O)N2c3ccccc3CC2C)o1 (centres undefined)
→ 2 | 2 | -3 | 7 | -67 | i | 11 | 2
- Cc1occc1-c1nnc(SCC(=O)Nc2ccccc2)n1C(C)c1ccccc1 (centres undefined)
→ -3 | -7 | 3 | -8 | . | i | -6 | 2
- Cc1cc(C)cc(N2CCCn3c2nc2c3c(=O)[nH]c(=O)n2C)c1
→ 2 | 1 | -1 | 2 | . | i | -14 | -10
- O=C(CSc1nc2ccccc2s1)NCCCN1CCOCC1
→ 6 | -4 | 7 | . | . | i | -12 | -6
- Cc1[nH]c(C)c(S(=O)(=O)NCC(C)c2ccccc2)c1C(=O)N1CCCCC1 (centres undefined)
→ 0 | 2 | 6 | -1 | 3 | i | 7 | -2
- O=C(NCCC1CC1(Cl)Cl)c1ccc([N+](=O)[O-])cc1 (centres undefined)
→ 0 | -2 | -8 | -10 | -8 | i | -11 | 1
- CCn1cc(S(=O)(=O)c2ccccc2)c(=O)c2cc(F)c(N3CCN(C)CC3)cc21
→ 2 | 5 | 1 | -10 | 12 | i | 1 | -5
- O=C(Nc1cccnc1)c1cc(Br)c(Br)s1
→ -8 | -7 | . | -25 | -19 | i | -5 | .
- O=C(O)CC/C(=N\Nc1ccc([N+](=O)[O-])cc1S(=O)(=O)N1CCOCC1)c1cccs1
→ -10 | -2 | -8 | -6 | 15 | i | -21 | -6
- CCCCOC(=O)c1ccc(N=Nc2c(C)c(C#N)c(O)[nH]c2=O)cc1
→ 0 | 8 | ? | . | 0 | i | 22 | ?
- Cc1[nH]nc(N=CC2=C(O)CC(C)(C)CC2=O)c1-c1ccccc1
→ 11&4 | -17&-10 | -11 | -21 | ? | i | 44 | 2
- Nc1ccc(CC2SC(=O)NC2=O)cc1 (centres undefined)
→ 9 | 3 | -10 | -19 | -95 | i | -13 | 6
- Cc1cc(OCCCn2ccnc2)ccc1C(C)C
→ 10 | -1 | -6 | 6 | -4 | i | 44 | -2
- COc1ccccc1C(=O)Nc1ccnn1C1CCN(Cc2cn(C)c3ccccc23)CC1
→ 5 | 3 | 4 | -7 | -6 | i | . | 8

Next part; the last 5 above are carried over.
SMILES	MT1-MMP act inh	MT1-MMP act inh RFP	PABP polyA inh	Yeast UUG start	HIV Env fusion	Rce1 inhib	CSC inhib	eIF4H FP inh
CCCCOC(=O)c1ccc(N=Nc2c(C)c(C#N)c(O)[nH]c2=O)cc1	0	8	?	.	0	i	22	?
Cc1[nH]nc(N=CC2=C(O)CC(C)(C)CC2=O)c1-c1ccccc1	11&4	-17&-10	-11	-21	?	i	44	2
Nc1ccc(CC2SC(=O)NC2=O)cc1 (centres undefined)	9	3	-10	-19	-95	i	-13	6
Cc1cc(OCCCn2ccnc2)ccc1C(C)C	10	-1	-6	6	-4	i	44	-2
COc1ccccc1C(=O)Nc1ccnn1C1CCN(Cc2cn(C)c3ccccc23)CC1	5	3	4	-7	-6	i	.	8
Cc1cc(C(F)(F)F)n2nc(-c3cccs3)cc2n1	-3	2	-6	.	36	i	-20	-5
Cc1cc(=O)[nH]c(SCC(=O)NCc2ccc3c(c2)OCO3)n1	2	-1	12	.	4	i	3	7
N#CC1=C(N)Oc2c(ccc3cccnc23)C1c1ccccc1 (centres undefined)	3	-6	7	-29	13	i	39	11
C=CCSc1nncn1/N=C/c1ccc(OC)cc1	3	6	-3	.	-319	i	-6	2
Cc1cccc(N(Cc2ccccc2)C(=O)c2cc(S(=O)(=O)N3CCOCC3)ccc2F)c1	-14	-6	.	0	4	i	0	.
CCOC(=O)Nc1ccc2c(c1)N(C(=O)CN1CCN(C)CC1)c1ccccc1S2	-7	0	-2	-3	?	i	2	9
C[C@@H]1O[C@@H](OCCC(=O)O)[C@H](O)C[C@H]1O	2	4	.	-20	-12	.	5	.
COCCn1c(=N)c(C(=O)NCCc2ccccc2)cc2c(=O)n3cccc(C)c3nc21	7	-2	.	.	.	i	7	.
Cc1nnc(SCC(=O)N2N=C(c3ccc(Cl)cc3)CC2c2ccco2)[nH]c1=O (centres undefined)	-11	5	9	.	5	i	-8	23
C/C(=N\NC(=O)Cc1ccccc1[N+](=O)[O-])c1cccnc1	0	4	3	-4	-119	i	9	0
COc1cccc(NC(=O)COC(=O)CNC(=O)C2CCCCC2)c1	-2	-1	.	6	.	.	-6	.
COCCNC(=O)C1(C)CCCN(Cc2sc(C)nc2C)C1 (centres undefined)	1	6	.	-10	3	.	.	.
COc1ccc(Nc2c(-c3ccco3)nc3ccc(C)cn23)cc1	-5	-4	-14	-13	20	i	2	?
COc1cccc(CN2CC(C(=O)NCCC3=CCCCC3)CCC2=O)c1 (centres undefined)	0	5	-3	-11	2	i	-7	-16
O=C(CCn1c(=O)oc2ccccc21)Nc1ccccc1	0	7	13	-10	-37	.	-7	0
